# Screening results deposited in PubChem by National Center for Advancing Translational Sciences (NCATS).
# Sfp inh = qHTS Assay for Inhibitors of Bacillus subtilis Sfp phosphopantetheinyl transferase (PPTase); 4'-phosphopantetheinyl transferase ffp (Bacillus subtilis), Q9F4F7; AID 1490, 2009; Potency, µM, inactives show max response, negative = inhibition, hits mostly inhibitors; actives 3.5% (n = 310,000); Biochemical Sfp PPTase activity, qHTS; active means well fitted inhibition curve with a large enough effect; inconclusive means small, poorly fitted or top-dose-only effect, or another doubt; inactive means no such curve, though single readings can be large or run the other way;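 further: the enzyme is Sfp with the accession as filed and its product quenches rhodamine fluorescence; potency means the concentration at half of the fitted maximal effect; 0% = enzyme reaction without inhibitor and -100% = no enzyme wells; top concentration of the series not given in the record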
#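 Step 1, compound plus 15 nM Sfp-PPTase, 15 min, room temperature. Step 2, add rhodamine-CoA (5 uM) and BHQ-2-YbbR (12.5 uM). Step 3, read 525/598 nm fluorescence at 0 and 30 min.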
# gsp antag = qHTS for Antagonists of gsp, the Etiologic Mutation Responsible for Fibrous Dysplasia/McCune-Albright Syndrome: qHTS | gsp-mutant cells, cAMP HTRF, 30 min; control for the full effect not named in the record | Potency, µM (highest dose often 76.9 µM), without a hit: at the highest dose activity change, negative = inhibition, hits mostly inhibitors | actives 0.4% (n = 340,000); active = falling curve of any shape with a large fitted effect; inconclusive = falling curve, mostly with a smaller effect; inactive = flat or rising curve; cell line not stated here;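 further: intracellular cAMP measured with PDE inhibitor Ro 20-1724 present during compound exposure; potency means the concentration at half of the fitted maximal effect; on the % scale 0 is the no-effect control and ±100 the full control effect; nearly all actives have a fitted effect of over 65% in size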
#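 HTRF cAMP read-out (cAMP-d2 plus anti-cAMP antibody-K in lysis buffer, 30 min RT). Before lysis, cells are exposed to compounds with […] for 30 min at 37C in DPBS containing Ca/Mg, BSA and Tween 20.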
# ClpP mod = qHTS Assay for Activators of ClpP; ATP-dependent Clp protease proteolytic subunit (Bacillus subtilis (strain 168)), P80244; purified B. subtilis ClpP, FRET peptide cleavage, 20 min; Potency, µM (highest dose often 57.5 µM), for inactives: top-dose activity change, negative = active; actives 1.9% (n = 340,000); AID 651965, 2013; active = well fitted falling curve with a large enough effect; inconclusive = small, poorly fitted or top-dose-only effect; inactive = no such curve, though single readings can be large or run the other way; further: potency means the concentration at half of the fitted maximal effect; the source files actives as falling curves though it sought activators and does not explain the sign; nearly all actives have a fitted effect of over 65% in size; many hits overshoot -100%
# Target sequence (P80244 whole entry, looked up): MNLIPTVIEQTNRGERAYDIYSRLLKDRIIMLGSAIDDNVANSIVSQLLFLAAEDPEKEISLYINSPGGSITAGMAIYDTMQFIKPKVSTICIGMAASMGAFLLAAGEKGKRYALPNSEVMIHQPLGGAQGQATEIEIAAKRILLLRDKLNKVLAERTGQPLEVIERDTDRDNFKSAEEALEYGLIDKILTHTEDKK
#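 ClpP 10 microg/mL final, pH 8 Tris/KCl buffer with BSA, glycerol, Tween-20; compound pinned in; FRET-FV substrate; RT 20 min; Ex320/Em430; ΔFRET vs ADEP 5.8 microM, DMSO, no enzyme.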
# D2 potentiator = Beta-Arrestin HTS for Positive Allosteric Modulators of the Human D2 Dopamine Receptor: Potentiators. potentiation, % (no concentration beside the values). actives 0.23% (n = 360,000). DiscoveRx D2 beta-arrestin cells, luminescence, 90 min; 100% = 57 uM dopamine signal; active = potentiation of 50% or more; inconclusive = 30% to 50%; inactive = 30% or less;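 further: compound concentration not given in the record; tested on top of an EC20 dose of dopamine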
# Target sequence (P14416 whole entry, looked up): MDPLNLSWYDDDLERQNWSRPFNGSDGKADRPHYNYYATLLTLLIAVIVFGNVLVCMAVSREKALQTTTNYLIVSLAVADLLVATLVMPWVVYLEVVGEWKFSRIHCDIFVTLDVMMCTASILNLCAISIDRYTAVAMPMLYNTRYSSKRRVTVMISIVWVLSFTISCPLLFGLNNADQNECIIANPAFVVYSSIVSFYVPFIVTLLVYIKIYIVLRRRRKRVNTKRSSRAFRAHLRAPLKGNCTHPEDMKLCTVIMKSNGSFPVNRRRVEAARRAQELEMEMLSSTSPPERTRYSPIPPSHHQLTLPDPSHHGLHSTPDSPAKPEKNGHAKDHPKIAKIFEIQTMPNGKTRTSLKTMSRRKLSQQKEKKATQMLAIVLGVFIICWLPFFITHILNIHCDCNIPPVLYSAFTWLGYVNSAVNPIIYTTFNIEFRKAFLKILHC
#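 PathHunter D2 cells, attached overnight at 37 deg C, received compound in DMSO plus dopamine at EC20 (50 nM final) for 90 min at 37 deg C. Beta-arrestin recruitment was read as luminescence after 1 h with detection reagent at ambient temperature.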
# Menin-MLL FL inh = qHTS Assay for Inhibitors Targeting the Menin-MLL Interaction in MLL Related Leukemias: Competition With Fluorescein Labeled MLL-derived Peptide. Fluorescence polarization, fluorescein-MLL peptide displacement from menin. FP activity change, % at 61.4 µM. 290,000 tested, under 10 active; inconclusive = falling polarisation curve, or a change in total fluorescence; inactive = total fluorescence flat and polarisation flat or rising; no compound was filed as active; the % refers to the polarisation; negative = inhibition;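 further: % of control where 0% means no effect; inhibitors lower the polarisation; unlabelled MLL peptide was the positive control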
# gsp ag = qHTS for Agonist of gsp, the Etiologic Mutation Responsible for Fibrous Dysplasia/McCune-Albright Syndrome: qHTS | gsp mutant cells, cAMP HTRF, 30 min; control for the full effect not named in the record | Potency, µM (highest dose often 76.9 µM), without a hit: at the top dose activation (cAMP increase), hits mostly activators | actives 0.13% (n = 340,000) | AID 624287, 2012; active = well fitted activation curve with a large enough effect; inconclusive = small, poorly fitted or top-dose-only effect, or another doubt; inactive = no such curve, though single readings can be large or run the other way; cell line not stated here;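 further: phosphodiesterase inhibitor Ro 20-1724 added with compounds to block cAMP breakdown; potency means the concentration at half of the fitted maximal effect; nearly all actives have a fitted effect of over 60% in size; about a fifth of the inactives were tested at one dose only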
#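 Cells stably selected in G418 were plated at 2000/well, grown 16-24 hr, then given compounds in DMSO with the PDE inhibitor […] (300 uM solution added) for 30 min at 37C; cAMP was read by HTRF.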
# TRPV1 PAM = HTS Assay for Compounds that Act as Potentiators of the Vanilloid Receptor 1; Transient receptor potential cation channel subfamily V member 1 (Homo sapiens), Q8NER1; actives 0.02% (n = 320,000); TRPV1-expressing cells, Fluo-8 calcium influx, capsaicin EC20 potentiation; host cell line not named in the record; control for the full effect not named in the record; potentiation, % at 8.33 µM; active means potentiation above 80%; inconclusive means 30% to 80%; inactive means below 30%; further: 0% is about no effect
#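 TRPV1-expressing cells were cultured overnight at 35.5C and loaded with Fluo-8 calcium dye for 40 to 90 min at room temperature. After a 10 s baseline, compound was added and calcium influx was read kinetically for 3 min (ex 480/em 520 nm).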
# Starred values were filed as active, the others as inactive; ? = inconclusive; nt = no result given; [ ] = dose if it differs, or a comment.
SMILES,Sfp inh,gsp antag,ClpP mod,D2 potentiator,Menin-MLL FL inh,gsp ag,TRPV1 PAM
Cc1ccc(-c2sc(C)nc2CC(=O)O)cc1,-8%,5%,-1.6%,11,-0.4,-48%[inhibitor],3
c1ccc(SCc2nc(-c3ccccn3)no2)cc1,-2%,-5%,-20%,5,4.3,0%,19
CN1CCN(c2ccc(Cl)cc2NC(=O)c2ccc(=O)n(C)n2)CC1,19%,7%,0.8%,-6,-1.9,-7%[15.4 µM],5
COc1ccc(C(=O)C(CN2CCOCC2)c2ccccc2)cc1 (stereo not given),7%,-16%,-1.6%,-13,-0.1,-55%[inhibitor],4
CSC(=CC(=O)c1ccccc1)SC,15%,-9%,0.1%,-10,3.6,?,13
Cc1ccc(NC(=O)c2cccc(S(=O)(=O)N3CCc4ccccc4C3)c2)nc1,nt,-6%,-26%,-3,nt,?,4
O=c1nc2n(c3ccccc13)Cc1ccccc1-2,24%,nt,nt,nt,4.0,nt,9
COc1ccc([C@H]2CC(=O)C=C(c3ccc4[nH]ccc4c3)C2)cc1OC,nt,?,-1.3%,1,nt,nt,-8
CCOC(=O)C1CCN(C(=O)CCc2nc3sc4c(c3c(=O)[nH]2)CCCC4)CC1,nt,-1%,-1.5%,-5,nt,-39%[inhibitor],-9
Cn1ccc2ccc(C3=CC(=O)C[C@H](c4ccc(F)cc4)C3)cc21,nt,-13%,-4.0%,-5,nt,-14%,-3
Oc1ccccc1-c1n[nH]c(=S)n1Cc1ccco1,-2%,11%,-18%,-11,3.8,-37%[inhibitor],-9
COc1ccc(Cl)cc1NC(=O)[C@@]1(CC(=O)O)CC(/C=C/c2ccccc2)=NO1,11%,0%,0.9%,1,-1.9,-35%[inhibitor],7
Cc1cccc(Nc2nc(N)nc(CSc3nccn3C)n2)c1,10%,9%,-2.9%,7,0.1,9%,2
Cc1ccc(S(=O)(=O)NCc2cccnc2)c(C)c1,16%,17%,nt,-5,-0.7,-62%[inhibitor],19
Cc1ccc(-c2nc(CN3CCCCC3)cc(CN3CCCCC3)c2O)cc1,40µM*,7%,nt,-23,2.0,-8%[15.4 µM],-2

# Profiles as entered above.
# Profile of `CCOC(=O)C1CCN(C(=O)CCc2nc3sc4c(c3c(=O)[nH]2)CCCC4)CC1` : Sfp inh: nt; gsp antag: -1%; ClpP mod: -1.5%; D2 potentiator: -5; Menin-MLL FL inh: nt; gsp ag: -39%[inhibitor]; TRPV1 PAM: -9
# Profile of `COc1ccc(C(=O)C(CN2CCOCC2)c2ccccc2)cc1` (stereo not given) : Sfp inh: 7%; gsp antag: -16%; ClpP mod: -1.6%; D2 potentiator: -13; Menin-MLL FL inh: -0.1; gsp ag: -55%[inhibitor]; TRPV1 PAM: 4

# (further entries)
SMILES,Sfp inh,gsp antag,ClpP mod,D2 potentiator,Menin-MLL FL inh,gsp ag,TRPV1 PAM
CC(=O)N(CC(=O)N(CC(=O)O)c1ccc(Cl)cc1)c1ccc(Cl)cc1,nt,7%,nt,6,nt,-6%,nt
COC(=O)CCC(=O)OC1(C)C(=O)C2=CN(C3CC3)C(c3ccc(OC)cc3)=CC2=C(Br)C1=O (stereo not given),-6%,8%,-1.9%,1,1.7[11.7 µM],-3%,nt
COc1ccc(CONc2ncnc3nonc23)cc1[N+](=O)[O-],13%,-5%,2.2%,-15,3.1,7%,13
c1ccc2c(c1)nc1n2CCN1CCN1CCCC1,0%,0%,-6.1%,-20,-11,3%[15.4 µM],-2
COc1ccc(NC(=O)CCNS(=O)(=O)c2cccc3nonc23)cc1Cl,13%,4%,nt,1,-1.5,-12%,?
O=C(N/N=C/c1ccc(Cl)c(Cl)c1)c1ccc2nc[nH]c2c1,-7%,7%,-14%,3,nt,0%,19
O=C(O)C1C=Cc2ccccc2N1C(=O)c1ccccc1 (stereo not given) (tested in a mixture with another compound),nt,4%,-7.7%,-15,nt,-9%,nt
CCn1c(CSc2ncccn2)nnc1SCC(=O)N1CCCCC1,16%,5%,-1.7%,-9,-6.1,28%,9
COc1ccc2c(c1)C(=O)CC(O)(C(F)F)O2 (stereo not given),4%,7%,0.6%,-4,0.0,-5%[15.4 µM],-21
Cc1nc(C(F)(F)F)ccc1C(=O)N1CCCCC1,8%,10%,nt,0,1.7,13%[15.4 µM],12
O=C(CSc1ccc(-c2ccc(Br)cc2)nn1)NCC1CCCO1 (stereo not given),6%,-6%,-0.9%,10,nt,6%[15.4 µM],-7
CC(C)(C)c1cc(C(=O)N2CCc3ccccc3C2)ccn1,17%,1%,0.1%,-1,3.6,17%,0
Cc1ccc(C(=O)c2c3ccc(C(F)(F)F)cc3[n+]([O-])n2CCC(N)=O)cc1,0%,-9%,-2.2%,-5,-1.1,nt,-13
COc1ccc(NC(=O)c2cnc(C)cn2)c2ncccc12,-14%,nt,nt,nt,-1.6,nt,-3
Cc1nn(C)cc1C(=O)Nc1ccccc1Br,5%,3%,-0.7%,-3,-0.2,5%[15.4 µM],9

# The closing seven entries of the part above are carried over, then new ones follow:
SMILES,Sfp inh,gsp antag,ClpP mod,D2 potentiator,Menin-MLL FL inh,gsp ag,TRPV1 PAM
COc1ccc2c(c1)C(=O)CC(O)(C(F)F)O2 (stereo not given),4%,7%,0.6%,-4,0.0,-5%[15.4 µM],-21
Cc1nc(C(F)(F)F)ccc1C(=O)N1CCCCC1,8%,10%,nt,0,1.7,13%[15.4 µM],12
O=C(CSc1ccc(-c2ccc(Br)cc2)nn1)NCC1CCCO1 (stereo not given),6%,-6%,-0.9%,10,nt,6%[15.4 µM],-7
CC(C)(C)c1cc(C(=O)N2CCc3ccccc3C2)ccn1,17%,1%,0.1%,-1,3.6,17%,0
Cc1ccc(C(=O)c2c3ccc(C(F)(F)F)cc3[n+]([O-])n2CCC(N)=O)cc1,0%,-9%,-2.2%,-5,-1.1,nt,-13
COc1ccc(NC(=O)c2cnc(C)cn2)c2ncccc12,-14%,nt,nt,nt,-1.6,nt,-3
Cc1nn(C)cc1C(=O)Nc1ccccc1Br,5%,3%,-0.7%,-3,-0.2,5%[15.4 µM],9
COc1ccc(CC(NC(C)=O)C(=O)NC2CCN(S(=O)(=O)c3cccc4ccccc34)CC2)cc1OC (stereo not given),15%,-13%,-1.0%,-7,2.9,-70%[inhibitor],1
CC(=O)Oc1oc(-c2ccccc2)nc1C=Nc1ccc(N(C)C)cc1,6%,-5%,nt,-7,?,27%[15.4 µM],-3
CCOC(=O)c1cc(C(C)=O)c(=O)n(C)c1N,0%,5%,-21%,-4,1.8,-21%,4
CCC(CC)C(=O)c1c[nH]c(C(=O)NCc2ccccc2)c1,10%,8%,-1.4%,-8,0.1,-3%,-3
C=CCn1c(=N)n(CC(=O)c2ccc(Br)s2)c2ccccc21,-16%,0%,-0.1%,-9,4.1,48%,19
COc1ccc(/C=N/NC(=O)c2cccc([N+](=O)[O-])c2)cc1OC,7%,5%,-1.8%,-2,-2.6,28%,1
CSC1=N/C(=C\c2ccc(C)o2)C(=O)S1,?,-15%,-1.4%,-14,?,-77%[inhibitor],16
Cc1cccc(-c2nc(CN3CCCC(C(=O)NC4CCCCC4)C3)c(C)o2)c1 (stereo not given),1%,?,0.2%,-21,4.2,5%,-7
O=C(CSc1ncccc1C(=O)O)c1cccc(C(F)(F)F)c1,-11%,-61%,nt,-3,-3.4,20%[15.4 µM],-1
O=C(Nc1ccccc1N1CCCC1)C1CC(=O)N(Cc2ccccc2)C1 (stereo not given),nt,4%,1.2%,-22,nt,-10%,-11
CCc1ccc(NC(=O)CS(=O)CC(=O)N2CCN(c3ccccc3F)CC2)cc1 (stereo not given),2%,0%,nt,-10,-1.5,16%[15.4 µM],0
Cc1c(Cl)ccc(S(=O)(=O)Nc2cccnc2)c1Cl,5%,-9%,1.9%,-5,0.1,20%,5
CC(C)CCNC(=O)C(c1ccc(O)cc1)N(Cc1ccco1)C(=O)CCC(=O)Nc1nccs1 (stereo not given),25%,2%,nt,-5,0.5,14%,19
COc1ccc(CNC(=O)C(c2cccc(C)c2)N(C(=O)c2csnn2)C2CC2)cc1 (stereo not given),-6%,-28%,-0.2%,4,-4.6,22%[15.4 µM],-5
Cc1csc(=O)n1CC(=O)OCC(=O)NNC(=O)c1ccc(Cl)cc1,nt,0%,-1.0%,-5,nt,22%,-6
COc1ccc(NC(=O)C2CCCN2C(=O)OCc2ccccc2)cc1 (stereo not given),6%,13%,nt,-3,0.3,26%[15.4 µM],?
Cc1ccc(N2CC(c3nc4ccccc4[nH]3)CC2=O)c(C)c1 (stereo not given),-6%,7%,1.3%,0,-2.0,-16%,0
Cc1noc(C)c1C(=O)OCC(=O)Nc1ncc(Cl)c(C)c1Cl,nt,7%,-0.2%,-4,nt,-1%[15.4 µM],nt
CC1C(=O)N2CCCc3cc(NC(=O)C(=O)NCCc4ccc(F)cc4)cc1c32 (stereo not given),nt,-9%,nt,-3,nt,-11%[15.4 µM],0
O=C(Nc1nccs1)c1ccc(CSc2nnnn2-c2ccccc2)cc1,13%,10%,-22%,-3,1.4,-26%,15
CCCNc1ccc(S(=O)(=O)N(C(C)C)C(C)C)cn1,-18%,-12%,0.1%,-11,3.0,10%[15.4 µM],-1
Cc1ccc(C(=O)CCC(=O)Nc2ncccc2O)cc1,nt,-3%,nt,-1,nt,-7%[15.4 µM],-11
Cc1ccc(NC(=O)c2ccc3nc[nH]c3c2)nc1,9%,1%,1.5%,-7,nt,-18%,-15
CCCn1c(SCC#N)nc2c(c1=O)C1(CCCC1)Cc1ccccc1-2,-5%,-19%,-18%,19,0.5,0%,4
